Bioassay records (PubChem)
HPGD inh: inhibitors of human 15-hydroxyprostaglandin dehydrogenase (HPGD) | P15428 | purified HPGD, NADH fluorescence kinetic, PGE2 substrate | Potency, µM, for the others: at the highest dose activity change, negative = inhibition, usual class: inhibitors | 4.3% of 150,000 active; active = well fitted inhibition curve with a large enough effect (not every such curve was filed as active); inconclusive = small, poorly fitted or top-dose-only effect, or another doubt; inactive = no such curve, though single readings can be large or run the other way;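 note: top concentration of the series not given in the record; plate controls included wells without enzyme; inactives centre near -10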
Target sequence (P15428 whole entry, looked up): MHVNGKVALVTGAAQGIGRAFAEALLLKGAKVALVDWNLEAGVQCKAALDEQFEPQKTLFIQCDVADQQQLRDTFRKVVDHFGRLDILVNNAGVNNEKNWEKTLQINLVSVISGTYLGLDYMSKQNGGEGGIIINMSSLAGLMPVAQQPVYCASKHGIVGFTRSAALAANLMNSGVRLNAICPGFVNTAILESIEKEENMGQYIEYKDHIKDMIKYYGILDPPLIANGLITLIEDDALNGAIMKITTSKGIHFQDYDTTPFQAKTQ
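NADH formation kinetics: reaction with 30 uM PGE2 and 1 mM NAD+ (final), 20 nM enzyme, Tris-HCl pH 8 with Tween 20, after 15 min compound preincubation at room temperature. Fluorescence change, last versus first of five reads.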
* marks the source's active call; other numbers are inactive results; ? = inconclusive; & = joins results of further samples. % is set by controls: 0 for no effect and ±100 for the full control effect; potency is the fitted concentration of half-maximal effect. These rows are one share of the data, so the mix of outcomes need not match the whole.

item	SMILES	HPGD inh
1	CCOC(=O)c1c(C)nc2sc3c(=O)[nH]cnc3c2c1-c1ccc(OC)cc1	?
2	CCCc1cc(=O)[nH]c(SCc2ccc(C#N)cc2)n1	16µM*
3	CCOC(=O)c1c(C)[nH]c(C2=NNC(=Nc3ccccc3OC)SC2)c1C	-15%
4	COCCn1c(SCC(=O)N2CCCc3ccccc32)nnc1-c1ccco1	-9%
5	Cn1c(NC(=O)Cc2ccc(F)cc2)cc(=O)n(C)c1=O	-12%
6	CC1CN(C(=O)Cc2ccc(-c3ccccc3)cc2)CC(C)O1 (stereo unspecified)	-22%
7	COc1ccc(CCNC(=O)CN2CCCc3ccccc32)cc1OC	-1%
8	CC(CCC(=O)O)C1CCC2C3CC[C@H]4CC(O)CC[C@@]4(C)C3C=C[C@]12C (stereo partly specified)	-2%
9	Cc1ccccc1Cn1nc(C)c(NC(=O)c2noc3c2CC(C(C)(C)C)CC3)c1C (stereo unspecified)	-1%
10	CCn1c(Cc2ccc(OC)cc2)nnc1SCC(=O)Nc1nc2ccccc2s1	-23%
11	COc1ccc(C2C(C#N)=C(N)N(Nc3ccccc3)C3=C2C(=O)CC(C)(C)C3)cc1C (stereo unspecified)	-6%
12	Cc1ccc(-c2nc(=S)c3c(n2CCN2CCOCC2)CC(C)(C)OC3)cc1	-16%
13	Cc1ccc(N2CCN(/N=C/c3c(C)nn(-c4ccccc4)c3Cl)CC2)cc1	-9%
14	Cc1[nH]nc2oc(=O)c(CCO)c(C)c12	-14%
15	COc1ccc(NCc2nnc(SCC(=O)Nc3cccc(C)c3)o2)cc1	-10%
16	CCOC(=O)NC1(C(F)(F)F)N=C(c2ccccc2)NC1=O (stereo unspecified)	-7%
17	Cc1ccc(NC(=O)Cn2c(CCC(=O)O)ccc2-c2cccs2)cc1	-8%
18	CCOC(=O)c1ccc(NC(=O)CNC(=O)c2ccccc2)cc1	3%
19	Fc1cccc(C2CC(c3cccc(Br)c3)Nc3nnnn32)c1 (stereo unspecified)	1%
20	CC(C)CCNC(=O)CN(Cc1ccc2c(c1)OCO2)C(=O)CCC(=O)Nc1ccccn1	-8%

item	SMILES	HPGD inh
21	COc1ccc(C2=NN(CCC(=O)NCc3ccc4c(c3)OCO4)C(=O)CC2)cc1	-25%
22	Cc1ccccc1NC(=O)Cn1c(=O)n(C)c2ccccc21	-6%
23	NNC(=O)CNc1cccc(Br)c1	-15%
24	CC(C)CCOCC(O)CCC(=O)NNC(=S)Nc1ccccc1 (stereo unspecified)	-15%
25	Cc1c2c(nc3c(C(=O)NC4CC4)cnn13)CCCC2	20µM*
26	COCCN1C(=O)N[C@@H](CCc2ccccc2)C(C(=O)OC)=C1C	-6%
27	Nc1nonc1C(=O)NCCNS(=O)(=O)c1ccc(Br)cc1	-8%
28	Cc1cc(OCCN2CCCC2)ccc1C(C)C	-7%
29	Cc1ccc(S(=O)(=O)Nc2cccc(-c3cn4ccsc4n3)c2)cc1	-3%
30	CCc1ccc(N2CC(C(=O)Nc3ccc(C)c(S(=O)(=O)N4CCOCC4)c3)CC2=O)cc1 (stereo unspecified)	-27%
31	CCOC(=O)C1CCN(C(=O)CSCCSCC(=O)N2CCC(C(=O)OCC)CC2)CC1	-10%
32	COc1ccc(/C=C/c2nc(-c3ccccc3O)n(-c3ccccc3)n2)cc1	?
33	COC(=O)[C@@]1(Cc2ccc(F)cc2)[C@H]2c3cc(C(=O)N(C)C)n(Cc4c(CO)[nH]cc(C)c4=O)c3C[C@H]2CN1C(=O)c1ccccc1	-15%&-15%
34	CCc1ccc(-c2csc(-c3c[nH]c4ccccc34)n2)cc1	?
35	COc1cc2nc(N3CCN(C(=O)c4ccco4)CC3)nc(N)c2cc1OC	?
36	Cc1cc(=O)n2nc(-c3ccccc3)sc2n1	-25%
37	O=C(NC1CCCC1)C1c2ccccc2C(=O)N1CCCN1CCOCC1 (stereo unspecified)	-2%
38	Cc1ccc(C(=O)n2c3ccccc3c3ccccc32)cc1	-21%
39	Cc1ccc(C(C)C)cc1OCCOCCN1CCCC1	3%
40	CC(=O)N1CCC2(CCN(Cc3ccc(C#N)cc3)CC2)CC1	-5%

item	SMILES	HPGD inh
41	O=C(NCCO)c1ccc2[nH]c3ccccc3c2c1	?
42	CCCCCCCOC(=O)c1ccc(OC(=O)c2cccnc2)cc1	22µM*
43	COc1cnc(SCC(=O)O)[nH]c1=O	1%
44	O=C1C2C3C=CC(C3)C2C(=O)N1c1cccnc1 (stereo unspecified)	4%
45	O=C(CCc1ccccc1)c1ccc2c(c1)OCCCO2	?
46	CCOc1ccc(C(=O)NC(=S)Nc2cccc(NC(=O)c3ccco3)c2)cc1[N+](=O)[O-]	-28%
47	CC1CCN(S(=O)(=O)c2ccc(S(=O)(=O)NCc3ccccc3)cc2)CC1	-9%
48	CC1(C)CC(C)(c2ccc(O)cc2O)N(c2ccc3ccccc3c2)C(=S)N1 (stereo unspecified)	1%
49	CCCCc1cc(=O)oc2cc(OCC(=O)N(CC)CC)c(Cl)cc12	?
50	CCOc1ccc(OCC)c(NC(=O)CNS(=O)(=O)c2cccs2)c1	-5%
51	CCc1cc(=O)oc2cc(OCC(=O)N3CCc4ccccc43)ccc12	?
52	Cc1cnc(C(=O)OCC(=O)Nc2cccc(S(=O)(=O)N3CCCCC3)c2)cn1	-1%
53	COc1ccc(-c2cc(C(=O)n3cnc4ccccc43)c3ccccc3n2)cc1	?
54	O=C(CN1CCN(CC(=O)c2ccc(F)cc2)CC1)Nc1ccccc1Cl	?
55	COc1ccc(-c2cc(-c3nnc(COC(=O)CC4CC5CCC4C5)o3)c3ccccc3n2)cc1OC (stereo unspecified)	?
56	Cn1nnnc1SCCNCc1ccccc1F	0%
57	Cc1ccc(CNC(=O)[C@H](C)[C@H]2C[C@]2(C)[C@H](NC(=O)OCc2ccccc2)c2ccccc2)c(F)c1F	-34%
58	Cc1nc(CCNC(=O)Cc2ccccc2)cs1	-2%
59	Cc1cc(-c2ccco2)n(-c2ccccc2)n1	32µM*
60	COc1cc2c(cc1OC)C(c1ccc(N(C)C)cc1)CC(=O)N2 (stereo unspecified)	-13%

item	SMILES	HPGD inh
61	CCCCSc1nnc(-c2ccc(C)cc2)c2ccccc12	-26%
62	CCOC(=O)CSc1nnc(Cc2ccccc2)n1CC1CCCO1 (stereo unspecified)	-7%
63	CC(=O)c1cn(CCCCCCCn2cc(C(C)=O)c(=O)[nH]c2=O)c(=O)[nH]c1=O	-13%
64	COc1ccccc1/C=C/C=N/N1CCN(Cc2ccc(Cl)cc2)CC1	-25%
65	O=C(c1ccccc1NS(=O)(=O)c1cccc([N+](=O)[O-])c1)N1CCOCC1	6%
66	Cc1ccc(N2CC(C(=O)Nc3nnc(SCC(=O)Nc4cc(C)on4)s3)CC2=O)cc1 (stereo unspecified)	-13%
67	CCn1c(SCC(=O)N2CCN(c3ccccc3)CC2)nnc1-c1ccncc1	20µM*
68	CN(C)c1ccc(/C=N/NC(=O)CN2CCN(c3ccc(F)cc3)CC2)cc1	?
69	Fc1c(F)c(F)c(CSc2nc3ccccc3[nH]2)c(F)c1F	-13%
70	Clc1ccc(-c2nnc3n2CCCCC3)cc1	16µM*
71	O=C(COC(=O)CNC(=O)C1CCCCC1)Nc1ccc2ccccc2c1	-4%
72	Cc1cc(-c2ccccc2)n(-c2ccc(C(N)=O)cc2)n1	32µM*
73	CCOC(=O)c1cnc2ccc(Cl)cc2c1NCCN(C)C	-12%
74	CCCCNC(=O)C(c1ccc(OCC(=O)OC)c(C(=O)OC)c1)N(CCc1ccccc1)C(=O)CCCCCN1C(=O)NC(c2ccc(-c3ccccc3)cc2)C(C(=O)OCc2ccccc2)=C1C (stereo unspecified)	-8%
75	O=C(Nc1ccc(Cl)cc1)C(c1ccccc1)N(CCO)CCO (stereo unspecified)	-1%
76	Cc1ccc(C(=O)COC(=O)c2cnccn2)cc1	-9%
77	CC(C)C[C@@H](CC(=O)N[C@@H](CCC(=O)O)CC(=O)O)NC(=O)[C@@H]1CCCC[C@H]1NC(=O)C[C@H](CCCN)NC(=O)C[C@H](CO)NC(=O)[C@@H]1CNCC[C@H]1N	-7%
78	CC(C)(C)c1ccc(NC(=O)COC(=O)CCN2C(=O)c3cccc([N+](=O)[O-])c3C2=O)cc1	-7%
79	CCCCCC1CC(=O)N(Cc2ccccc2)C(=O)N1 (stereo unspecified)	-12%
80	N#CC1=C(N)Oc2n[nH]c(CSc3ccccc3)c2C12C(=O)Nc1ccccc12 (stereo unspecified)	-6%

item	SMILES	HPGD inh
81	CN1CCN(C(=O)c2ccc3c(=O)n(Cc4ccc(Cl)cc4)c(=S)[nH]c3c2)CC1	-19%
82	COc1ccccc1CNC(=O)CCN1C(=O)COc2ccccc21	-9%
83	COc1ccccc1C(=O)N/C(=C\c1ccc(Br)cc1)C(=O)NCC(=O)O	-1%
84	CC(C)(C)c1ccc(C(=O)c2c[nH]c(C(=O)NCCCn3ccnc3)c2)cc1	-23%
85	CCCCOC(=O)C1=C(C)Nc2ncnn2C1c1ccc(OCC)c(OC)c1 (stereo unspecified)	-17%
86	O=C(CSc1ncccn1)N1CCN(C(=O)CSc2ncccn2)CC1	-3%
87	Cc1ccc(C(O)C2=CCCC2=O)cc1 (stereo unspecified)	-4%
88	CCOC(=O)c1cnc(SCC(=O)Nc2cc(C(F)(F)F)ccc2N2CCOCC2)nc1N	-16%
89	COc1ccc(C(=O)C2C3C4COC(O4)C(=O)C3C3C=Cc4ccccc4N32)c(OC)c1 (stereo unspecified)	-20%
90	CCC(C)C(NC(=O)OC(C)(C)C)C(=O)NC(C(=O)N1CCCC1C(N)=O)C(C)CC (stereo unspecified)	-6%
91	CCOC(=O)c1c(C)nc2c(c1-c1ccccc1)C(=O)CC(C)(C)C2	-13%
92	Cc1cc(NC(=O)C2(c3ccccc3)CCCC2)no1	5%
93	Cc1c(NC(=S)NC(=O)C2CCCCC2)c(=O)n(-c2ccccc2)n1C	-14%
94	COC(=O)c1ccc(Cl)c(NC(=O)CN2CCN(Cc3ccccc3)CC2)c1	-5%
95	COc1ccccc1NS(=O)(=O)c1cccc(C(=O)N/N=C/c2ccc(N3CCOCC3)cc2)c1	-9%
96	O=C(Oc1ccccc1)c1ccccc1OS(=O)(=O)c1ccccc1	-13%
97	CNC(=O)c1sc(-c2cccnc2)nc1C	-12%
98	CCOC(=O)Cc1csc(NC(=O)CCS(=O)(=O)Cc2ccccc2)n1	-4%
99	Cc1cc(-c2nn(-c3ccccc3)cc2/C=C2\SC(N)=NC2=O)ccc1OC(C)C	?
100	CCCCN(C)S(=O)(=O)c1ccc(C(=O)N=c2sc3cc(NC(C)=O)ccc3n2C)cc1	-26%

item	SMILES	HPGD inh
101	O=C(NCCOC(=O)c1ccc(S(=O)(=O)N2CCOCC2)cc1)c1cccnc1	5%
102	O=C(Nc1ccccc1[N+](=O)[O-])C1C(c2ccccc2)=C1c1ccccc1	-7%
103	C/C(CC(=O)NCc1ccco1)=N\NC(=O)COc1ccc(C)cc1	2%
104	Cc1cccnc1NC(=O)Cn1nc(-c2ccccc2)oc1=S	-18%
105	Cc1ccc(CNC(=O)C(CCC(N)=O)NC(=O)OCc2ccccc2)cc1 (stereo unspecified)	-13%
106	COc1ccccc1N1CCN(c2cc(=O)n(Cc3ccc(F)cc3)c(=O)[nH]2)CC1	0%
107	CC(=O)NC12CC3CC(C1)CC(C(=O)OCC(=O)c1ccc4c(c1)OCCO4)(C3)C2	-10%
108	CCCCN(C(=O)CNC(=O)c1cccs1)C(C(=O)NC1CCCCC1)c1cccnc1 (stereo unspecified)	-18%
109	O=C(C(c1ccccc1)c1ccccc1)N1CCN(Cc2ccccn2)CC1	2%
110	CC(C)c1nnc(SCC(=O)NCc2ccco2)n1C	-6%
111	N=c1c(S(=O)(=O)c2ccccc2)cc2c(=O)n3ccccc3nc2n1Cc1ccco1	?
112	C=CCn1c(CSCc2ccccc2)nnc1SCC(=O)NCc1ccccc1	-4%
113	Cc1c(C(=O)NC(C)c2ccccc2)c(-c2ccccc2)nn1-c1ccccc1 (stereo unspecified)	-11%
114	O=[N+]([O-])c1ccc(N/N=C2/CCCCC2c2ccccn2)c([N+](=O)[O-])c1 (stereo unspecified)	-4%
115	CC(C)NC(=O)N1CC2(CCN(S(=O)(=O)c3ccccc3)CC2)C1	-5%
116	COCCNC(=O)CSc1ncnc2sccc12	18µM*
117	CCOc1ccc(OCC)c(NC(=O)C2CCCN(S(=O)(=O)c3c(C)noc3C)C2)c1 (stereo unspecified)	-8%
